From PubChem BioAssay
A488 fluor: compound autofluorescence in A488 spectral region; compound autofluorescence, A488 spectral region, dye equivalency; stronger effect = higher value; max dye equivalency, M; 59,000 compounds, 0.1% hits; AID 591; active = above 10 nM dye equivalent; inconclusive = 1 to 10 nM; inactive = 1 nM or less; about half of its hits are not listed in these tables;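 note: highest value over a series up to 38 µM; compound alone in buffer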
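Compound autofluorescence was read in 100 mM Tris pH 8.0 after 15 min at room temperature, ex 480 nm/em 540 nm. Intensities were converted to A488 dye-equivalent concentration using an on-plate six-point A488 standard curve.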
A647 fluor: A647 region autofluorescence; Compound fluorescence, A647 channel (570/671 nm), Tris buffer; max dye-equivalent concentration, M; 59,000 tested, under 10 active; AID 592; active means above 1 µM dye equivalent; inconclusive means 0.1 to 1 µM; inactive means 0.1 µM or less;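 note: values scaled relative to a standard on each plate; highest value over a series up to 38 µM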
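Buffer was dispensed, compounds and Alexa 647 standards were pin-transferred, and plates sat 15 min at room temperature. Intensity at 570/671 nm was then converted to dye-equivalent concentration using the plate's A647 standard curve.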
Resorufin autofl: compounds fluorescent in resorufin spectral region | max dye-equivalent concentration, M | Compound fluorescence, resorufin region 547/598 nm, buffer; stronger effect = higher value | AID 588 | 59,000 compounds, 0.04% hits; active = above 10 nM dye equivalent; inconclusive = 1 to 10 nM; inactive = 1 nM or less; a few of its hits are not listed in these tables; note: highest value over a series up to 38 µM
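Dye-equivalent concentration values derive from comparing each well's 547/598 nm fluorescence against resorufin standards included on every plate. Incubation was 15 min at room temperature in 100 mM Tris, pH 8.0.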
TSHR agonist: agonists of human thyroid stimulating hormone receptor. P16473. HEK293-CNG-TSHR cells (CNG channel as cAMP sensor), membrane potential dye, cAMP. Potency, µM (titrated, usually from 57.1 µM), for inactives: top-dose activation, hits mostly activators. 73,000 compounds, 0.48% hits. AID 926; active = well fitted activation curve of enough size with the parental cells flat; inconclusive = any curve in the parental cells; inactive = parental cells flat and receptor cells flat or falling; note: potency is the fitted concentration of half-maximal effect; % of control where 0% means no effect; weak receptor curves with flat parental cells got no call and are not listed
Target sequence (P16473 whole entry, looked up): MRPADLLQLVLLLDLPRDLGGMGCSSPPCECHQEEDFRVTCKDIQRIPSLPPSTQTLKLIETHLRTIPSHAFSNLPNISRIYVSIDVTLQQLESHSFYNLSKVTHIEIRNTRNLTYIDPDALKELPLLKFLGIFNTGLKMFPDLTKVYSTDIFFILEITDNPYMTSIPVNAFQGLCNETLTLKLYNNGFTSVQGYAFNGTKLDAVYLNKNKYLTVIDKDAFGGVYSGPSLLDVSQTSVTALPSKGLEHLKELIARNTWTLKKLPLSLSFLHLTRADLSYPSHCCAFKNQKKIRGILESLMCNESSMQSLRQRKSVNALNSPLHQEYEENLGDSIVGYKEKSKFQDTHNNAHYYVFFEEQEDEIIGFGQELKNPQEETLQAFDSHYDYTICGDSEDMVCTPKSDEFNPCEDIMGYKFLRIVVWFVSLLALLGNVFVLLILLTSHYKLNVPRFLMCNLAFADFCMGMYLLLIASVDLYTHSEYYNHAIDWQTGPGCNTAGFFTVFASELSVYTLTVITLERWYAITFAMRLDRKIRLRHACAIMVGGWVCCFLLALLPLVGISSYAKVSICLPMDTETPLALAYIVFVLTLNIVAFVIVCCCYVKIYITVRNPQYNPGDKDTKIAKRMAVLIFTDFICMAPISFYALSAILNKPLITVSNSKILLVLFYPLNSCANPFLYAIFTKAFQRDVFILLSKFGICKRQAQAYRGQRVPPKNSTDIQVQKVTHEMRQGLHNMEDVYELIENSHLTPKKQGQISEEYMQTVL
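cAMP rise detected as CNG-channel membrane depolarization by fluorescent dye (emission 590 nm), 30 min after compound, following 60 min dye loading containing 100 uM RO 20-1724 at room temperature. Cells: TSHR/CNG HEK 293, with parental CNG HEK 293 as control.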
AID923: qHTS Assay for Allosteric/Competitive Inhibitors of Caspase-1: Spectroscopic Profiling in AFC Spectral Region | compound fluorescence, AFC spectral region (405/520 nm); almost no hit is shown here | Potency, µM (doses to about 57.5 µM), inactives show at the highest dose fluorescence increase, usual class: activators | 75,000 compounds, 1.1% hits | AID 923, 2007; active = well fitted activation curve with a large enough effect; inconclusive = small, poorly fitted or top-dose-only effect;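 note: potency is the fitted concentration of half-maximal effect; 0% is about no effect; scaled to a free AFC standard on each plate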
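Baseline compound fluorescence (AFC region, 405 nm ex/520 nm em) taken from the intercept of kinetic reads with 50 nM caspase-1 and 5 uM Ac-WEHD-AFC; normalized to an on-plate AFC standard curve; compounds titrated up to 57 uM.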
The depositor's hits bear a star; i = inactive; ? = inconclusive; nt = no result given; [ ] = another dose, or the depositor's remark. An excerpt; count on the stated rates, not on these rows.

SMILES	A488 fluor	A647 fluor	Resorufin autofl	TSHR agonist	AID923
CCC(=O)OCC(=O)[C@@]1(OC(=O)CC)[C@H](C)C[C@@H]2[C@H]3CCC4=CC(=O)C=C[C@]4(C)[C@]3(Cl)[C@@H](O)C[C@@]21C	i	7.4e-09	i	24%[25.6 µM]	0.5%[25.7 µM]
Cc1nnc(SCC(=O)N2CCN(S(=O)(=O)c3ccccc3)CC2)[nH]c1=O	i	1.6e-08	i	5%	-1.1%
Cc1ccc(-c2nc(CSCC(=O)NCCCN3CCOCC3)c(C)o2)cc1	i	2e-08	i	-1%[11.4 µM]	-0.5%
Cc1ccc(N)c(C(=O)CCCCC(=O)O)c1	i	1e-09	i	0%	2.1%
Cc1ccc(C)c(NC(=O)C(Sc2nncn2C)c2ccccc2)c1 (centres undefined)	i	1e-09	i	-8%	-1.0%
O=C(NCc1ccco1)c1csc(Nc2ccccc2Cl)n1	i	1e-09	i	?	-0.3%
COc1ccc(C(=O)Cn2nnc(-c3ccccc3-n3cnnn3)n2)cc1	i	1e-08	i	?	-0.5%
CCn1c(SCc2ccccc2)nnc1-c1cccs1	i	5.4e-09	i	?	-0.5%
CN(C)/C=C(\C#N)c1nc2ccccc2[nH]1	i	1e-09	i	-1%	0.8%
CCOc1ccc(NS(=O)(=O)c2ccc3[nH]cc(C(=O)N(CC)CC)c(=O)c3c2)cc1	i	3.1e-08	i	-2%	1.0%
CCOC(=O)c1[nH]c2ccccc2c1NC(=O)c1ccc(Br)o1	i	9.8e-09	i	-6%[11.4 µM]	-0.4%
O=C(OCn1nnc2ccccc2c1=O)c1cccs1	nt	nt	nt	-5%	-2.4%
Cc1ccc(CSc2nnc(-c3ccc(S(=O)(=O)N4CCCC4)cc3)o2)cc1	i	2.3e-08	i	?	-2.2%
O=C(NCCCN1CCCC1=O)c1ccccc1NS(=O)(=O)c1ccc(F)cc1	i	1e-09	i	1%	1.8%
O=C1[C@@H]2CSCN2C(=O)CN1CCc1cccc(F)c1	i	8.7e-09	i	-7%	-0.9%
CC(C)CNC(=O)c1cc(-c2ccc(Cl)c(Cl)c2)on1	i	1.3e-09	i	6%	-1.3%
CNc1cc(C)nc(-n2nc(C)cc2C)n1	i	4.2e-08	i	2%	-1.3%
CCCCc1ccc(NC(=O)C2CCCO2)cc1 (centres undefined)	nt	nt	nt	-2%[11.4 µM]	0.2%
Cc1ccnc(N2CCC(C(=O)Nc3ccc4c(c3)CCC4)CC2)n1	i	3.5e-09	i	2%	-0.9%
COc1ccccc1NC(=O)C1(C)Cc2ccccc2C(=O)O1 (centres undefined)	nt	nt	nt	9%	1.5%
COCCN1Cc2cccc(C(=O)NCc3ccccn3)c2C1=O	nt	nt	nt	-5%	2.0%
CC(C(=O)NCc1cccs1)n1cccc1 (centres undefined)	i	1.2e-08	i	5%	-0.6%
Cc1cc(Br)c2c(c1)=C(c1sc(N3CCCCCC3)nc1O)C(=O)N=2	i	4.1e-08	i	-42%[inhibitor]	-0.1%
Cc1ccccc1NS(=O)(=O)c1cc(S(C)(=O)=O)ccc1Cl	i	2.3e-08	i	4%	-2.1%
COC(=O)[C@@]1(Cc2ccc(OC)cc2)[C@H]2c3cc(C(=O)N(C)C)n(Cc4ccc(S(C)(=O)=O)cc4)c3C[C@H]2CN1C(=O)c1ccccc1	nt	nt	nt	?	2.9%
CCN(CC)CCCCn1c(-c2ccccc2)nc2c(NCCOC)nc(C)nc21	nt	nt	nt	8%	0.3%
CCOc1ccccc1NC(=O)CSc1ncnc2c1oc1ccccc12	i	4.7e-09	i	?	0.1%
CCCCCCCCCCCCCCCCCC(=O)NCCc1ccc(O)c(O)c1	nt	nt	nt	-1%	0.0%
O=C(NCc1ccccc1)C1CCN(S(=O)(=O)c2cccc3cccnc23)CC1	nt	nt	nt	5%	2.4%
CCOC(=O)CSc1ncnc2c1nnn2-c1ccc(F)cc1	nt	nt	nt	5%	-1.8%
CSc1nc2ccc(NC(=O)C3CC(=O)N(Cc4ccco4)C3)cc2s1 (centres undefined)	i	5.1e-08	i	?	-1.0%
CCCCn1nnnc1SCC(=O)c1ccc(C)c(C)c1	i	4e-08	i	?	1.9%
CCOC(=O)c1cccnc1SCc1cc(=O)n2ccccc2n1	i	1e-09	i	20%	-0.1%
Cc1nn(-c2ccccc2)c2nc(-c3ccncc3)cc(C(=O)NCc3ccco3)c12	i	1.6e-08	i	?	7.1%
CCc1ccc(CNC(=O)CN2C(=O)COc3ccccc32)cc1	i	1.7e-08	i	12%	0.5%
Nc1nc(CSc2n[nH]c(-c3ccccc3)n2)nc(Nc2ccccc2)n1	i	1e-09	i	-5%	-1.7%
C[N+](C)(C)[C@@H](C1=CCCC1=O)c1ccccc1	i	1.6e-09	i	2%[11.4 µM]	-0.8%[11.5 µM]
Cc1cc(CNC(=O)[C@@H]2C[C@H]2[C@@H](NP(=O)(c2ccccc2)c2ccccc2)c2ccccc2)nn1C	nt	nt	nt	4%	-0.9%
O=C(C1CCN(C2CC(=O)N(c3cccc(Cl)c3)C2=O)CC1)N1CCCCCC1 (centres undefined)	i	8.6e-09	i	3%	0.7%
O=C(Nc1ncc(Cc2ccccc2)s1)c1cccs1	i	4.4e-09	i	-8%	-0.2%
O=C(CSc1ncc(-c2ccccc2)n1-c1ccccc1)NCc1ccco1	i	1.7e-08	i	?	-5.8%
CCOc1ccc(NC2c3ccccc3C(=O)N2Cc2ccco2)cc1 (centres undefined)	nt	nt	nt	0%	3.8%
Cc1cc(C)nc(NC(=O)CSc2ccccn2)n1	i	5.6e-09	i	5%	1.4%
COCc1cc(C2C(C(=O)c3ccco3)=C(O)C(=O)N2CCOCCO)ccc1O (centres undefined)	i	4e-08	i	8%	-1.0%
CCn1c(C2CC(=O)N(Cc3ccccc3)C2)nc2ccccc21 (centres undefined)	nt	nt	nt	4%	-2.3%
O=C1OCc2cc(NC(=O)C3COc4ccccc4O3)ccc21 (centres undefined)	nt	nt	nt	6%	0.4%
CC(=O)NCc1cccc(CNC(C)=O)n1	i	1e-09	i	8%	2.6%
O=C(COC(=O)C(O)c1ccccc1)NC12CC3CC(CC(C3)C1)C2 (centres undefined)	i	1.6e-08	i	7%	0.9%
COc1ccc(-n2nnnc2SCC(=O)N2CCOCC2)cc1	nt	nt	nt	0%	0.0%
COc1c(-c2ccc(O)c(O)c2)oc2cc(O)cc(O)c2c1=O	i	1e-09	i	4%	-1.6%
CS(=O)(=O)N1CCCC(C(=O)NCCCN2CCN(Cc3ccccc3)CC2)C1 (centres undefined)	i	1e-09	i	-1%	2.1%
Cc1cc(C)c(S(=O)(=O)Nc2ccc(OCC(=O)O)cc2)c(C)c1	nt	nt	nt	1%	-0.3%
CCCN1C(=O)NC2(O)C(=O)c3ccccc3C12O (centres undefined)	i	1e-09	i	0%	-1.0%
CC(C)NC(=O)c1ccccc1NC(=O)CN(c1ccc2c(c1)OCO2)S(C)(=O)=O	i	1.6e-09	i	10%	-2.9%
c1ccn2c(SCc3ccc4c(c3)OCCO4)nnc2c1	nt	nt	nt	4%	0.1%
COC(=O)[C@H](Cc1ccccc1)NC(=O)[C@@H](N)CC(=O)O	nt	nt	nt	?	-1.3%
CCN(CC)S(=O)(=O)c1ccc(S(=O)(=O)N2CCN(CCC#N)CC2)cc1	nt	nt	nt	-11%	-1.4%
Cc1ccc(C(=O)CC2(O)C(=O)N(Cc3ccc4c(c3)OCO4)c3ccccc32)cc1 (centres undefined)	i	1.8e-08	i	19%	-1.9%
Cc1ccc(N(CC(=O)N2CCc3ccccc32)C2=NC(=O)CS2)cc1	i	5.7e-09	i	6%	0.7%
Cc1occc1-c1nnc(SCC(=O)c2ccc(F)cc2)n1Cc1ccco1	i	3.2e-09	i	4%	1.2%
Carrying on:
SMILES	A488 fluor	A647 fluor	Resorufin autofl	TSHR agonist	AID923
CCc1ccc(OC)c(S(=O)(=O)Nc2ccccc2C)c1	i	1e-09	i	29%	-0.4%
NCCNS(=O)(=O)c1ccc(N)cc1	i	1e-09	i	-3%[11.4 µM]	0.2%[11.5 µM]
CCOC(=O)CSc1nnc(-c2ccncc2)o1	i	2.6e-08	i	0%	-1.7%
O=C(O)CCc1nnc2n(Cc3ccc(F)cc3)c(=O)c3ccccc3n12	nt	nt	nt	-11%	4.4%
Cc1ccc(Nc2nc(N)nc(CN3CCN(C)CC3)n2)cc1	i	1e-09	i	-1%	-0.7%
O=C(OCC(F)(F)C(F)F)c1ccccc1C(=O)Oc1ccc(F)cc1F	nt	nt	nt	?	-1.1%
O=C(c1cccs1)N(Cc1ccco1)Cc1cc2ccccc2[nH]c1=O	i	8.4e-09	i	21%	0.2%
C[C@@](N)(C(=O)O)c1cccc(CC(=O)O)c1	nt	nt	nt	15%	-2.1%
CCC1(C)Cc2c(sc3c2c(=O)n(C)c2nnc(SCC(=O)c4ccccc4)n32)CO1 (centres undefined)	i	3.8e-08	i	20%	1.0%
CC1Cc2cc(/C(O)=C3/C(=O)C(=O)N(CCCN(C)C)C3c3ccncc3)ccc2O1 (centres undefined)	i	1.2e-08	i	-5%	-2.6%
CCC12CN(C(=O)c3ccc(OC)cc3)CC(CC)(CN(C(=O)c3ccc(OC)cc3)C1)C2=O	i	2.2e-08	i	?	1.8%
Cc1c(C(=O)Nc2ccccc2)sc2nc(-c3ccccc3)cn12	i	1.5e-09	i	?	-1.2%
CC(=O)c1cccc(NC(=O)N2CCCC2C(=O)NC2CCCCC2)c1 (centres undefined)	i	9.6e-09	i	3%	1.2%
CCOc1ccc(-c2nnn(CC(=O)NCc3ccc(OC)cc3)n2)cc1OCC	i	3e-09	i	-6%	0.6%
CC(=O)Nc1cc2ccccc2oc1=O	i	8.9e-09	i	-9%[25.6 µM]	2.1%[25.7 µM]
CCn1cc(Br)c(-c2nc3ccccc3c(=O)n2N)n1	i	4.7e-09	i	?	-1.8%
COc1ccc(-c2cc(C(F)(F)F)nc(N3CCOCC3)n2)cc1OC	i	2.3e-08	i	?	0.4%
CC1(C)CC(=O)c2cc(C(=O)Nn3cnnc3)c(=O)n(-c3ccccc3)c2C1	i	3.4e-08	i	3%	-0.9%
O=C(NCCc1ccccc1)c1ccc2c(c1)N(Cc1ccccc1)C(=O)CS2=O (centres undefined)	nt	nt	nt	9%	0.4%
CCCc1nc2oc3cc(OC)ccc3c(=O)c2c(=O)n1Cc1ccco1	i	1e-09	i	10%	2.8%
CCOC(=O)C1CCCN(C(=O)CCC(=O)Nc2ccc3nc(N4CCOCC4)cc(C)c3c2)C1 (centres undefined)	i	1.6e-09	i	-2%	-0.3%
CN1CCN(C(=O)c2cc3c(s2)-c2ccccc2S(=O)(=O)C3)CC1	nt	nt	nt	5%	1.4%
